AF4-AF9 inh – inhibitors of AF4 peptide binding to AF9, primary screen, biochemical, AlphaScreen, biotin-AF4 peptide, FLAG-AF9, single point. inhibition, % at 10 µM. 350,000 tested, 0.47% active;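 active = every replicate reaching a set inhibition limit, whatever the replicate mean, cut at about 25% in these data; inconclusive = mean inhibition reaches that limit but some replicates miss it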;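 note: 0% = plate neutral control median and 100% = total signal loss; the record names both 10 and 1 µM as test concentration; the first replicate is given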
Target sequence (P42568 whole entry, looked up): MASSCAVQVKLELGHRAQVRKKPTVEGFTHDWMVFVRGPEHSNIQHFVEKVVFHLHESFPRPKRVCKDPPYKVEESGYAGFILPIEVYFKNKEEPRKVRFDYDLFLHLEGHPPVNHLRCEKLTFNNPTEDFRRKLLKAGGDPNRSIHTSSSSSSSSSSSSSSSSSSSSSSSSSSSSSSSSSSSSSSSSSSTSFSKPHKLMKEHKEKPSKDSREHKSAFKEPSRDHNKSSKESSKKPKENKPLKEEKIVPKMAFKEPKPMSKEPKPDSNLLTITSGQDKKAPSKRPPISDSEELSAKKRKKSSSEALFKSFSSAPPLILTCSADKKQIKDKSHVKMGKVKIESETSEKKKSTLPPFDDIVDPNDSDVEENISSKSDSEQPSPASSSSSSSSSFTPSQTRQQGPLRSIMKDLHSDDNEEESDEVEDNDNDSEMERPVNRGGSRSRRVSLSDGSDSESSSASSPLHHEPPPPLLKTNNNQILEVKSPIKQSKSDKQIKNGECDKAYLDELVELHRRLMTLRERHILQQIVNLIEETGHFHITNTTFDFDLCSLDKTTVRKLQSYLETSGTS
rRNA inh HTS – reduced GFP signal of wild-type E. coli, primary screen, bacterial rRNA inhibitor project, GFP/RFP fluorescence, OD600, single point; E. coli WT GFP vs humanized-ribosome RFP mutants, 24 h; hits give low values; DMSO median 0, no signal -100; GFP signal change (wild-type ribosome), % (test concentration not listed); 350,000 tested, 1.6% active; AID 720706, 2013;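 active = significant combined selectivity score with lowered wild-type GFP, culture density cut under 30%, mutant RFP and density less affected; inactive = any of these conditions unmet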; note: one replicate is shown; some compounds called inactive have numbers as strong as hits
Vif A3G – inhibitors of Vif binding to APOBEC3G peptide, primary screen, biochemical, TR-FRET, GST-Vif 1-94, biotin-A3G peptide, dose response retest (AID 1117319) | TR-FRET GST-Vif / biotin-A3G peptide binding; higher % means a stronger effect; test concentration not given here; strong numbers were not always called active | one-dose inhibition, %; IC50 in µM for titrated hits | 260,000 tested, 0.57% active;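 active = above the screen mean plus three standard deviations and confirmed in dose response; inconclusive = results disagree or hit not tested in dose response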;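 note: Vif residues 1-94 fused to GST binding biotinylated APOBEC3G peptide 110-148; 0% = full assay without inhibitor and 100% = GST in place of GST-Vif; retest series ran down from 100 µM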
Bfl-1 A1 inh – caspase 3/7 activation in MEF A1-2A-BIM cells, primary screen, A1 inhibitor project, cell-based, luminescence, HTS. 330,000 tested, 0.066% active. Caspase-Glo 3/7 luminescence, 3 h; percent of clofoctol response, vehicle zero. caspase activation, % (test concentration not listed);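 active = over half of replicate activation scores above 10%, or exactly half above 10 with the replicate mean above 10; inconclusive = replicate mean below 10 yet half the replicates above 10; inactive = over half of replicates below 10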;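 note: wells of about 30 µL received 50 nL stock; many hits fall short of the cut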
Beta cell apopt – inhibitors of cytokine-induced beta cell apoptosis, primary screen, luminescence; 300,000 tested, 0.8% active; INS-1E cytokine-induced death, ATP luminescence, 48 h; percent of positive-control rescue, neutral wells zero; protection from apoptosis, % (concentration not given with the values);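 active = all replicates at 75% or more, or half of them and the mean; inconclusive = half reach 75% but not the mean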;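 note: 0% = cytokine-treated negative control wells and 100% = positive control rescue; higher means more ATP so stronger rescue from cytokine killing; wells of about 40 µL received 100 nL stock; the first replicate is given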
RanGTP-Impb inh – inhibitors of RanGTP-importin-beta interaction, primary screen, biochemical, FRET, CFP-Ran, YFP-importin-beta, homogeneous; inhibition, % (concentration not given with the values); Ran GTPase (GTP-bound) - importin-beta complex; AID 2216, 2009; 300,000 tested, 1.1% active; cell-free CFP-Ran/YFP-importin-beta FRET ratio;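 active = most replicates above 15%; inconclusive = exactly half above 15%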;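 note: 0% = DMSO wells and 100% = Ran loaded with GDP instead of GTP; wells of about 40 µL received 100 nL stock; the first replicate is given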
Calb FLC – C. albicans growth inhibition with fluconazole, primary screen, CaCi-2 strain, Alamar Blue fluorescence; C. albicans CaCi-2 (fluconazole-resistant clinical isolate) + fluconazole, 48 h; growth inhibition, % (concentration not given with the values); 300,000 tested, 0.57% active;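 active = most replicates above 75%; inconclusive = exactly half above 75%; inactive = most below 75%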;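 note: all wells also contain fluconazole at 8 µg/ml as a sub-toxic cotreatment; 0% = median of DMSO wells and 100% = median of geldanamycin control wells; wells of about 8 µL received 7.5 nL stock; the first replicate is given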
T cruzi repl – inhibitors of intracellular T. cruzi growth, primary screen, luminescence, NIH3T3 host cells; T. cruzi beta-gal in NIH3T3, 90 h; inhibition, % (no concentration beside the values); 300,000 tested, 1.4% active;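 active = mean inhibition across valid replicates above about 55%, limit read from the data; inconclusive = mean below that limit but half or more replicates reach it; inactive = mean below it, under half of replicates reach it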;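 note: signal also drops with host cell toxicity which is not excluded here; 0% = plate median of DMSO wells and 100% = zero luminescence signal; higher percent means less beta-gal luminescence so fewer parasites; stock transfer was 50 nL into about 50 µL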
rRNA inh HTS OD600 – recorded beside rRNA inh HTS, whose call it bears; OD600 change, %; measured here: OD600 growth;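 optical density of the mix in the first replicate; 0 = DMSO median and -100 = no signal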
rRNA inh HTS RFP – second read-out of rRNA inh HTS, no call of its own (marks repeat the call); RFP signal change, %; measured here: RFP humanized mutant strains;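 first replicate; 0 = DMSO median and -100 = no signal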
* = called active by the depositor; ? = inconclusive; . = not tested or not shown; & = joins results of further samples. The list is partial; rates above refer to the full screens.

SMILES | AF4-AF9 inh | rRNA inh HTS | rRNA inh HTS OD600 | rRNA inh HTS RFP | Vif A3G | Bfl-1 A1 inh | Beta cell apopt | RanGTP-Impb inh | Calb FLC | T cruzi repl
CC(C)(C)C(=O)O[C@H]1CC[C@@]2(C)C(=CC(=O)C3C2CC[C@]2(C)C(=O)[C@@H](F)CC32)C1 (stereo partly drawn) | -1.0 | 7 | 0 | 1.0 | -10% | -0.3 | -3 | . | . | .
O=c1[nH]c(O)c(C=Nc2ccccc2[N+](=O)[O-])c(=O)[nH]1 | . | . | . | . | . | -0.2 | -4 | -3.1 | 9 | 6
COc1ccc(CN2C(=O)NC(=O)/C(=C\c3ccc(OC)c(OC)c3OC)C2=O)cc1 | -1.1 | 15 | 8 | 4.4 | 16% | -0.4 | . | 4.7 | 13 | -22
Cc1c(C=O)c2ccccc2n1Cc1ccccc1F | 2.0 | -36 | -42 | -8.5 | -8% | 0.0 | -6 | -1.9 | 16 | 1
COc1ccc(-n2c(O)c(C(C)=NC3CC3)c(=O)[nH]c2=O)cc1 | . | . | . | . | 2% | 0.1 | -9 | 0.3 | 16 | -8
Cn1cccc1CNCCc1ccc(F)cc1 | . | 20 | 19 | 2.5 | 26% | 1.3 | . | 0.6 | ? | 29
CCOC(=O)c1c(NC(=O)C(c2ccccc2)c2ccccc2)sc2c1C1CCN2CC1 | . | 5 | 6 | -7.1 | 3%&-6% | 0.0 | 52 | 0.5 | 13 | 55*
CNCC(O)c1cc(OCc2ccccc2)c(OCc2ccccc2)cc1F (stereo not drawn) | 12 | -52 | -78 | -18 | . | -0.5 | 6 | 8.5 | 32 | 2
COC(=O)Cn1cc(C(=O)c2ccccc2F)c2ccccc21 | -1.0 | 5 | 6 | -0.4 | -6% | ? | -14 | 2.2 | -4 | -3
O=C1C2CCCN2C(c2ccccc2)N1c1ccccn1 (stereo not drawn) | . | . | . | . | -9% | -1.0 | -7 | -0.2 | 63* | 1
COC(=O)C1=C(c2ccc(S(C)(=O)=O)cc2)C[C@@H]2CC[C@H]1N2C(=O)N1CCCC1 | 3.6 | 16 | 8 | -0.4 | . | -0.3 | -6 | 0.3 | -5 | -18
O=C1NC(=O)C2(Cc3ccccc3N3CCCC32)C(=O)N1c1ccccc1 (stereo not drawn) | . | . | . | . | ? | 1.0 | 1 | -1.3 | -7 | -1
CCCCCn1cc(C(=O)C(=O)N2CCOCC2)c2ccccc21 | 0.2 | -6 | -23 | 3.0 | . | -1.1 | -6 | 5.2 | -5 | 18
O=C1NC(=O)C(CCc2ccncc2)(CCc2ccncc2)C(=O)N1C1CCCCC1 | -0.9 | -13 | -21 | -4.6 | 3% | -0.8 | . | 8.2 | 6 | 8
CCN1CCN(C(=O)COc2ccc(S(=O)(=O)NC(C)C)cc2)CC1 | -1.6 | 10 | 11 | -0.3 | 2% | 0.3 | -3 | 2.0 | ? | -3
O=c1c2ccccc2nc(N2CCCC2)n1-c1ccc(Cl)cc1 | . | . | . | . | 26% | -0.2 | 4 | 6.4 | -20 | 6
O=c1[nH]c(=O)n(-c2cccc3ccccc23)c(O)c1/C=N/N1CCCCC1 | -2.1 | 17 | 10 | 3.0 | 1% | -0.2 | 0 | 3.7 | -2 | -20
CCOc1ccc(N2C(=O)NC(=O)/C(=C\c3cc(OC)c(OC)cc3[N+](=O)[O-])C2=O)cc1 | -3.2 | . | . | . | 15% | 0.0 | -2 | -3.4 | 39 | -11
CC1CC(NC(=O)C2C3CCC(O3)C2C(=O)O)CC(C)(C)C1 (stereo not drawn) | . | . | . | . | -6% | 0.6 | -13 | 1.1 | -7 | -14
CC(Cc1ccccc1)N1Cc2ccccc2C1 (stereo not drawn) | . | . | . | . | -6% | -0.3 | 1 | 3.5 | -1 | 9
Cc1nc2ccc(N3CCN(C)CC3)cc2nc1C | -1.4 | 8 | 10 | 16 | . | -1.2 | 2 | 2.5 | 17 | -2
Fc1ccccc1CCNCc1cccc(Cl)c1Cl | . | . | . | . | 25% | -0.7 | -8 | 1.2 | -8 | -13
CNC(=S)N/N=C1\C2CN3CCN(C2)CC1(c1ccccc1)C3 | . | . | . | . | -8% | -0.2 | . | ? | ? | -11
Cc1cc(C)n(-c2ccc(NN=C(C#N)C#N)cc2)n1 | 2.3 | -48 | -50 | -14 | -7% | -7.3 | -12 | 0.7 | -11 | 10
CCN(CC)C(=O)N[C@H]1C[C@@H]2c3cccc4[nH]cc(c34)C[C@H]2N(C)C1 | 5.2 | -43 | -74 | -2.0 | 23% | 0.0 | -8 | -3.2 | 7 | 6

Compounds listed so far containing a Cl atom, in the order listed:
SMILES | AF4-AF9 inh | rRNA inh HTS | rRNA inh HTS OD600 | rRNA inh HTS RFP | Vif A3G | Bfl-1 A1 inh | Beta cell apopt | RanGTP-Impb inh | Calb FLC | T cruzi repl
O=c1c2ccccc2nc(N2CCCC2)n1-c1ccc(Cl)cc1 | . | . | . | . | 26% | -0.2 | 4 | 6.4 | -20 | 6
Fc1ccccc1CCNCc1cccc(Cl)c1Cl | . | . | . | . | 25% | -0.7 | -8 | 1.2 | -8 | -13

(cont.)
SMILES | AF4-AF9 inh | rRNA inh HTS | rRNA inh HTS OD600 | rRNA inh HTS RFP | Vif A3G | Bfl-1 A1 inh | Beta cell apopt | RanGTP-Impb inh | Calb FLC | T cruzi repl
COP(=O)(NC(=O)C(Cl)(Cl)Cl)OC | 27* | 19 | -2 | 1.2 | 2% | 0.5 | -3 | 1.2 | 4 | -6
CN(C)CCSCc1nnc2n1-c1ccc(Cl)cc1C(c1ccccc1Cl)=NC2 | 1.3 | 5 | -1 | 1.9 | . | -0.5 | -7 | -0.2 | -23 | 42
CC1CN=C(NC(C)c2ccccc2)S1 (stereo not drawn) | 1.0 | 10 | 7 | -0.7 | 7% | -0.2 | -3 | 2.0 | -1 | -7
Cc1cc([P+](=O)O)c(C)n1-c1ccc(Br)cc1 | 2.3 | 5 | 5 | 0.0 | -6% | 0.2 | 5 | 3.3 | -5 | -4
CCOC(=O)C(O)(c1ccc(NC(=S)NC(=O)c2ccc(Cl)cc2Cl)c(C)c1)C(F)(F)F (stereo not drawn) | 7.9 | -4 | -4 | -1.0 | . | 0.7 | 13 | ? | 60 | 12
C=C1[C@H]2C[C@H]3[C@H]4N5C[C@]6(C)CCC[C@]47[C@H]([C@H]2O)[C@]3(C[C@]5(O)[C@H]67)[C@@H]1O | -2.5 | . | . | . | . | -1.2 | 0 | 2.5 | -1 | -6
CN1CCN(C(=O)COc2ccc(S(=O)(=O)NC3CCCCC3)cc2Cl)CC1 | 0.6 | 0 | 2 | -1.2 | -5% | -0.1 | -1 | 2.3 | 2 | 25
CN1CN(c2cccc([N+](=O)[O-])c2)CN=C1N[N+](=O)[O-] | -2.4 | 13 | 11 | 0.5 | 23% | -0.1 | -6 | -1.4 | ? | -5
COCCOC(=O)c1c(N)n(Cc2ccccc2)c2nc3ccccc3nc12 | . | . | . | . | 5% | -0.3 | . | 19* | -14 | 45
COc1ccc(CC(=O)N(CCN(C)C)CC2CCCN(Cc3ccccc3F)C2)cc1 (stereo not drawn) | 8.8 | 8 | 15 | 0.5 | . | 0.2 | . | 1.7 | 19 | 10
COc1ccc(CNCCc2ccc3c(c2)OCO3)cc1Br | -5.0 | 23 | 0 | -9.5 | 5% | 0.2 | 1 | 4.0 | -9 | 21
O=[N+]([O-])c1ccc(N2CCCCCC2)c2nonc12 | 5.4 | 56 | -39 | 29 | . | -0.1 | . | -60 | 1 | 6
CCCCn1c(O)c(C(C)=Nc2c(C)n(C)n(-c3ccccc3)c2=O)c(=O)[nH]c1=O | . | . | . | . | 4% | -0.2 | -1 | 3.8 | 2 | -6
COc1ccc(CN2C(=O)CC(=O)NC2=O)cc1 | . | . | . | . | 5% | 0.5 | -2 | -1.3 | 23 | -5
Nc1ccncc1 | -2.9 | 16 | 19 | 4.7 | 29% | 0.2 | . | 0.5 | . | -15
COc1cc(/C=C/c2nc3ccccc3c(=O)n2-c2ccc(O)cc2)ccc1O | 4.5 | -1 | -25 | 8.4 | 4% | 0.4 | 3 | 1.5 | 23 | 4
COc1ccc(Br)cc1CN1CCN(CCO)CC1 | . | . | . | . | -5% | 0.3 | -2 | -0.9 | -2 | -10
CCOc1ccc(CC2C(=O)NC(=O)N(c3ccc(CC)cc3)C2=O)cc1 (stereo not drawn) | . | . | . | . | 1% | -0.4 | -3 | -2.3 | 20 | -26
CC(C)(C)C(=O)OCC12CCC(O1)C1(C)C(=O)OCC21 (stereo not drawn) | 2.4 | . | . | . | 2% | 0.1 | . | -1.8 | -4 | -8
Cc1ccc(C(O)(c2ccc(C)c(C)c2)C2CN3CCC2CC3)cc1C (stereo not drawn) | 8.5 | -58 | -79 | -32 | -7% | 0.8 | 16 | -13 | -5 | 13
Cn1c(O)c(C=NCCN2CCN(C(=O)Nc3ccccc3)CC2)c(=O)n(C)c1=O | 1.4 | 2 | -9 | -1.0 | 5% | ? | . | -2.5 | 10 | -5
Cc1ccc(NC(=O)CSc2nnc([C@@H](N)Cc3c[nH]c4ccccc34)o2)c(C)c1 | . | . | . | . | 19% | -0.6 | -7 | ? | 109* | 25
c1ccc2c(c1)Nc1ccccc1S2 | . | . | . | . | 29% | -0.4 | 3 | 1.4 | . | 10
COc1ccc(C(=O)C2CCCN(C3CSCCSC3)C2)cc1OC (stereo not drawn) | -2.2 | -8 | -1 | 4.8 | 5% | -2.1 | -8 | -4.2 | 17 | 30
C=CCn1c(O)c(C(C)=Nc2cccc(C(=O)O)c2)c(=O)[nH]c1=O | 4.8 | 14 | 9 | -1.5 | 9% | -0.6 | -2 | -4.4 | -2 | 4
CCN(CC)c1ccc(N=Cc2c(O)n(-c3ccccc3C)c(=O)[nH]c2=O)cc1 | . | . | . | . | 14% | -0.2 | -2 | -15 | ? | 28
CC12CC[C@H]3[C@@H](CCC4(O)C[C@H](O)CCC34/C=N/NC(=O)c3ccccc3Cl)C1(O)CCC2C1=CC(=O)OC1 (stereo partly drawn) | -7.2 | -2 | -13 | 6.5 | 1% | -0.7 | -3 | -2.1 | 5 | -3
O=C1C=C2C=C[C@H]3C[C@]2(O1)[C@@H]1CCCCN13 | 2.7 | -12 | -21 | 5.8 | 17% | 1.6 | 1 | 0.8 | -14 | -23
C/C(=N\Nc1cccc2ccccc12)c1c(O)n(Cc2ccccc2)c(=O)[nH]c1=O | . | . | . | . | . | -1.9 | 3 | -5.6 | 1 | -12
O=C1/C(=C/c2cc([N+](=O)[O-])ccc2Cl)N2CCC1CC2 | . | . | . | . | ? | -0.1 | 1 | -7.5 | -24 | -5

Source: PubChem BioAssay
